Screens (PubChem)
VDR inh: Inhibitors of the vitamin D receptor (VDR): qHTS | VDR-SRC2-3 peptide fluorescence polarization, 2 h | 0.93% of 400,000 active | Potency, µM, for the others: max response, negative = inhibition, actives largely listed as inhibitors | Vitamin D3 receptor (Homo sapiens), P11473; active means well fitted inhibition curve with a large enough effect; inconclusive means small, poorly fitted or top-dose-only effect, or another doubt; inactive means no such curve, though single readings can be large or run the other way; further: series mostly up to about 120 µM
Target sequence (P11473 whole entry, looked up): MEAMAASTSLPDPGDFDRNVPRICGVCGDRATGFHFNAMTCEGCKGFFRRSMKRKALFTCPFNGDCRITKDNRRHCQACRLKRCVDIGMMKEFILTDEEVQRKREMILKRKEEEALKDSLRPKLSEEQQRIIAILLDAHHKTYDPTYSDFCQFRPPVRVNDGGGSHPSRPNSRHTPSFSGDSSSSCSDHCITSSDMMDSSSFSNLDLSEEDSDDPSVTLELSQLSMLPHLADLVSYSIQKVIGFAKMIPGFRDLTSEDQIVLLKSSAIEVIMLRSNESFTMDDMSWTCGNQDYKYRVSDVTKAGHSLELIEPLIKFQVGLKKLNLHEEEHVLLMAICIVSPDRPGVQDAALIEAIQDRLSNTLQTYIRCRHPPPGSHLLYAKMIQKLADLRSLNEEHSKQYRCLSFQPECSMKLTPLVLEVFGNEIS
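Compounds are added to VDR with labelled SRC2-3 coactivator peptide and held 2 h at room temperature. Inhibition of the VDR–peptide interaction is then read as a change in fluorescence polarization.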
Starred values were filed as active, the others as inactive; ? = inconclusive. On the % scale 0 is the no-effect control and ±100 the full control effect; potency means the concentration at half of the fitted maximal effect. Some of the compounds tested; the hit share may differ from the screen's.

SMILES	VDR inh
CCOC(=O)NCc1ccc(S(=O)(=O)Nc2ccc(C)cc2)cc1	9.5%
Cc1nc2sc(-c3ccccc3)cc2c(=O)[nH]1	4.1%
Cn1c(=O)c2c(nc(SCc3cccnc3)n2Cc2ccccc2)n(C)c1=O	-2.7%
CCOC(=O)Cn1c(COc2ccccc2OC)[n+](C)c2ccccc21	-7.0%
CCOc1ccccc1N(C)C(=O)c1sc2nc3n(c(=O)c2c1C)CCCC3	2.5%
CS(=O)(=O)c1nc(S(=O)(=O)c2ccc(Cl)cc2)c(NCCCn2ccnc2)s1	-4.2%
O=C(CN1CCN(S(=O)(=O)c2ccc(Cl)s2)CC1)N1CCCCC1	17.8%
Cc1c(OCC(=O)NCc2cccnc2)ccc2c3c(c(=O)oc12)CCCC3	7.9%
Cc1cc(NC(=O)Cn2c(=O)oc3ccc(Cl)cc32)no1	9.5%
S=C(Nc1ccc2nc(-c3ccccn3)c(-c3ccccn3)nc2c1)N1CCCCCC1	6.0%
Cc1cc(C)cc(NC(=O)C(=O)NCC2CCCN2S(=O)(=O)c2cccs2)c1 (stereo not drawn)	-4.4%
Cc1cc(C(=O)CSc2ccccc2)cc(C)c1O	-14.7%
Cc1cccc(NC(=O)c2c(C)nn(-c3ccccc3)c2Cl)c1	-9.8%
COc1ccccc1NS(=O)(=O)c1cccc(NC(=O)NC2CCCCC2)c1	-11.9%
COc1cc(Cl)c(C)cc1NC(=O)c1ccc2c(SCC(=O)O)c3c(nc2c1)CCCC3	?
CC(=O)NCCNc1ncnc2ccc(-c3ccccc3C(F)(F)F)cc12	?
CSc1ccccc1NC(=O)CN(C)CC(=O)Nc1ccccc1N1CCOCC1	-1.2%
O=[N+]([O-])c1ccc(N/N=C/c2cccc(O)c2O)cc1	?
CC(=O)NCCn1c(SCC(=O)c2ccccc2)nc2ccccc2c1=O	-2.5%
Cc1cc(C)cc(Oc2coc3c(CN4CCN(C)CC4)c(O)ccc3c2=O)c1	1.8%
O=C(Oc1cccc2ccccc12)c1ccccc1	-1.5%
CCN(CC)C(=O)c1sc2c(c1C)c(=O)n(-c1ccc(Cl)c(Cl)c1)c(=O)n2Cc1ccccc1C#N	-1.5%
O=C1CC(c2cccc(Cl)c2)C(n2cncn2)C(=O)C1C1NCCc2ccccc21 (stereo not drawn)	-8.3%
CN(Cc1cccs1)C(=O)CCCc1c[nH]c2ccccc12	5.7%
Cc1cc(C(=O)NC(=S)Nc2ccccc2N2CCCC2)ccc1[N+](=O)[O-]	-15.1%
COc1ccc(S(=O)(=O)N2CCOC2CNC(=O)C(=O)NCCc2ccccc2)cc1 (stereo not drawn)	-15.3%
Cc1nc2c(C)cccn2c1/C(O)=C1\C(=O)C(=O)N(CCN(C)C)C1c1cccs1 (stereo not drawn)	0.0%
COc1ccccc1N(Cc1ccccc1)S(=O)(=O)c1cccc(C(=O)Nc2ncccc2C)c1	-1.6%
CCc1cc(=O)oc2cc3occ(C)c3cc12	-9.6%
CCOc1cc(NC(=O)Nc2ccccc2)c(OCC)cc1NC(=O)CC	0.0%
Cc1ccc(S(=O)(=O)N(CC(O)CN2C(=O)NC(C)(C)C2=O)c2cccc([N+](=O)[O-])c2)cc1 (stereo not drawn)	2.1%
COc1ccc(NC(=O)N2CCCC2C(=O)Nc2ccccc2F)cc1 (stereo not drawn)	8.9%
Cn1cccc1/C=C(\C#N)c1ccccc1	-17.3%
CCOc1ccc(N2C(=O)CC(N(Cc3ccco3)C(C)=O)C2=O)cc1 (stereo not drawn)	-4.0%
CSCC[C@@H](C(=O)Nc1cccc(F)c1)N1Cc2ccccc2C1=O	-17.2%
O=C(COC(=O)c1cccc(S(=O)(=O)N2CCCC2)c1)NCc1ccccc1	8.6%
O=C(COc1ccc(Cl)cc1)Nc1ccc(CN2CCOCC2)cc1	-0.8%
CN1CCN(C(=O)Cn2c(-c3cccs3)cc3ccccc32)CC1	9.2%
Cc1ccc(C)c(N2CCN(C(=O)c3cnn(-c4ccccc4Cl)c3C3CCN(C(=O)OC(C)(C)C)CC3)CC2)c1	10.9%
CCCc1cc(=O)[nH]c(SCC(=O)c2c(C)[nH]c3ccccc23)n1	18.1%
CC(=Nc1ccccc1O)c1sc2ccccc2c1O	-14.4%
CCC(C)c1ccc(OCCCCN2CCOCC2)cc1 (stereo not drawn)	-9.2%
COc1cc(NC(=O)c2ccccc2)c(OC)cc1NC(C)=O	5.7%
OC(COc1ccc2c(c1)CCC2)Cn1cnc2ccccc21 (stereo not drawn)	12.7%
C[C@H](CO)N1C[C@H](C)[C@@H](CN(C)Cc2ccncc2)Oc2ccc(NC(=O)Cn3cnnn3)cc2C1=O	2.3%
CCOc1cccc2cc(-c3nc4ccc(C(=O)O)cc4[nH]3)c(=O)oc12	14.4%
CCOc1ccccc1NC(=O)c1ccccc1N(C)S(C)(=O)=O	-5.1%
COc1ccc(C(=O)NC(=S)NCc2ccco2)cc1Br	-16.5%
COc1cccc(CN(C)C(=O)CNC(=O)c2sc3ccccc3c2Cl)c1OC	?
CCCN(CC(=O)Nc1ccccc1C)C(=O)Cc1c(C)nc2ccccc2c1C	5.7%
Cn1c(=O)c2[nH]c(NN=Cc3ccc(Br)cc3)nc2n(C)c1=O	11.1%
COc1ccc(C(=O)Cn2nnc(-c3ccccc3NC(=O)C3CC3)n2)cc1	9.5%
CCCc1nn2c(=O)cc(COC(=O)c3ccc(NC(=O)CCc4ccccc4)cc3)nc2s1	9.5%
CCCc1c(C(=O)N/N=C/c2cccc3ccccc23)nnn1-c1nonc1N	0.7%
Cn1c(=O)[nH]c(=O)c2c1nc(SCC(=O)Nc1ccccc1)n2Cc1ccccc1	-12.9%
Cc1ccc(C)c(S(=O)(=O)N2CCCOC2CNC(=O)C(=O)NCCc2ccccc2)c1 (stereo not drawn)	2.6%
Cc1cc(F)ccc1S(=O)(=O)NCC(c1ccc2c(c1)OCO2)N1CCOCC1 (stereo not drawn)	3.9%
Cc1ccc(C)c(NC(=O)COc2cccc3c2CCN(Cc2ccccc2)C3=O)c1	-7.7%
CCC(C)c1ccc(C(CC)NC(=O)C2CCCO2)cc1 (stereo not drawn)	6.7%
COc1cccc(NC(=O)CN2C(=O)CSc3ccc(S(=O)(=O)N4CCCC4)cc32)c1	0.5%

The listing continues:
SMILES	VDR inh
C#CCOC(=O)Nc1cccn(Cc2c(Cl)cccc2Cl)c1=O	-8.5%
CCC(C)NC(=O)CSc1nc2c(sc3ccccc32)c(=O)n1CCc1ccc(OC)c(OC)c1 (stereo not drawn)	1.3%
COc1ccc(C(OCCN2CCC[C@@H](C(=O)O)C2)(c2ccc(OC)cc2)c2ccc(OC)cc2)cc1	2.1%
Cc1ccc(-n2nc(CO)c(C(=O)NCc3cccnc3)n2)cc1	3.1%
CCCCCC(=O)Nc1ccc(-c2csc(C)n2)cc1	-5.3%
COCC(=O)N1CCC2(CCCN(c3ccccn3)C2)CC1	-4.9%
COc1ccc(CCNC(=O)C2CCC(CNS(=O)(=O)c3ccc(C)cc3)CC2)cc1OC (stereo not drawn)	5.6%
COc1ccc(NC2=CC(=O)CC(c3ccccc3)C2)c(OC)c1 (stereo not drawn)	-5.0%
COc1ccc(CCNC(=O)c2ccc(CNc3nc(=S)[nH]c4ccccc34)cc2)cc1OC	-15.8%
COc1cccc(NC(=O)C2CCN(C(=O)[C@@H]3Cc4ccccc4CN3C(=O)OC(C)(C)C)CC2)c1	13.0%
CN(C)Cc1c(O)ccc2cc(-c3nc4ccccc4n3C)c(=O)oc12	7.5%
O=C(O)/C=C/C(=O)Nc1ccc(F)cc1F	6.8%
COC(=O)CSc1nc2ccccc2c(=O)n1Cc1ccccc1	10.1%
Cc1cccc(COCC(Cc2ccccc2)N2CCN(C(=O)c3cccc(Cl)c3)CCC2=O)c1 (stereo not drawn)	-5.0%
CCC(C)[C@H](NC(=O)N1CC(=O)Nc2ccccc21)C(=O)N[C@H](Cc1c[nH]c2ccccc12)C(=O)O (stereo partly drawn)	-8.7%
Clc1ccccc1-c1nnc(-c2ccccc2CNc2ccccc2)o1	-13.2%
CC1CCc2c(sc3nc(SCC(=O)NCc4ccco4)nc(N)c23)C1 (stereo not drawn)	-1.7%
Cc1c(C(=O)OCc2ccccc2)[nH]c2c1C(=O)CC(c1ccco1)C2 (stereo not drawn)	-27.5%
CC(C)C[C@@H](CC(=O)N[C@@H](CCC(=O)O)CC(=O)O)NC(=O)[C@@H]1CNCC[C@H]1NC(=O)C[C@@H](NC(=O)C[C@H](Cc1ccccc1)NC(=O)[C@@H]1CNCC[C@H]1N)C(C)C	-5.0%
O=[N+]([O-])CC1(n2nc3ccccc3n2)CCCCC1	-24.7%
Cc1ccc(/C(O)=C2/C(=O)C(=O)N(c3ccccn3)C2c2cccc([N+](=O)[O-])c2)cc1 (stereo not drawn)	-18.9%
CN(Cc1cccnc1)Cc1cn(Cc2ccccc2)nc1-c1ccc2c(c1)OCO2	-2.5%
O=C(O)CCCC(=O)Nc1ccc(C(=O)N2CCCCC2)cc1	-5.6%
Cc1c(NC(=O)c2ccc3c(c2)OCO3)cccc1-c1nc2ccccc2s1	20.9%
O=C(Nc1ccc(S(=O)(=O)N2CCCC2)cc1)Nc1ccc(F)cc1F	-27.9%
CCc1nc2n[nH]c(N)c2c2c1CSC(C)(C)C2	5.0%
Cn1nnc2cc(C(=O)Nc3ccc(Cl)cc3)ccc21	-0.1%
C=CCOc1c(/C=N\NC(N)=O)cccc1OC	4.2%
Cc1ccccc1NC(=O)C1(C)Cc2ccccc2C(=O)O1 (stereo not drawn)	10.3%
COc1cc(C(C)=O)ccc1OCC(O)CN1CCN(c2ccc(C)c(C)c2)CC1 (stereo not drawn)	-15.4%
CCCCCCn1c(C)nc2c(c1=O)c1nc3ccccc3nc1n2/N=C/c1ccco1	0.4%
O=C(Cc1ccc(NC(=O)C2CCN(C(=O)C3CC3)CC2)cc1)Nc1cccc(C(=O)N2CCCCC2)c1	4.2%
CN(CC(=O)Nc1cccc(F)c1)C(=O)c1ccc(OCC2CCCO2)cc1 (stereo not drawn)	-1.4%
O=C(CC(Nc1ccccc1)c1ccccc1)C1CC1 (stereo not drawn)	11.9%
O=C(CCn1c(=O)oc2ccccc21)NCc1ccco1	-2.6%
O=C(c1ccc2nc(-c3ccccc3)c(-c3ccccc3)nc2c1)N1CCCCC1	-14.8%
Cc1cc(NC(=O)CCCn2ccc([N+](=O)[O-])n2)n(Cc2ccc(F)cc2)n1	12.9%
COc1ccc(Cl)cc1NC(=O)c1cc(S(=O)(=O)N(C)Cc2ccccc2)ccc1F	5.6%
CN(CC(=O)NC1CCCCC1)S(=O)(=O)c1cccc2cccnc12	-12.2%
C#CCNS(=O)(=O)c1ccc(F)cc1Br	-2.7%
CCO[C@H]1OC(C(=O)NC2CC2)=C[C@@H](c2csc3ccccc23)[C@@H]1CCCO	-8.3%
c1ccc(CSc2nnc3ccc(-c4ccncc4)nn23)nc1	-5.7%
C=CCSc1nnc(NC(=O)CCN2C(=O)C3CC=CCC3C2=O)s1 (stereo not drawn)	-0.1%
COc1ccccc1NC(=O)CN1CCN(CC(=O)Nc2ccc3c(c2)OCO3)CC1	-2.9%
Cc1ccc2c(c1)C=CC(C)(C)S2=O (stereo not drawn)	0.3%
Cc1ccc(-c2csc3nnc(SCc4csc(C)n4)n23)cc1	-1.9%
CC(=O)Nc1nc(C)nc(-c2ccccc2OC(C)=O)n1	12.8%
CN(C(=O)COC(=O)/C=C/c1ccc(F)cc1)c1c(N)n(Cc2ccccc2)c(=O)[nH]c1=O	1.0%
CCCCOc1ccc(C(=O)NNC(=O)C2C3C=CC(C3)C2C(=O)O)cc1 (stereo not drawn)	-2.3%
N#Cc1c(-c2ccco2)cc(-c2ccccn2)nc1N	6.0%
CCC(C)C(NC(=O)[C@@H](NC(=O)c1ccccc1F)C(C)C)C(=O)OC (stereo partly drawn)	-1.0%
O=C(Cc1ccc(Cl)cc1)Nc1cc(Cl)ccn1	-15.3%
Cc1nc(-c2ccc(S(=O)(=O)Oc3ccc(Cl)cc3Cl)s2)cs1	-22.5%
CC(C)NC(=O)N1CCN(c2ccncc2S(=O)(=O)N2CCOCC2)CC1	1.3%
O=C(NCc1cccnc1)c1cccc(F)c1	11.4%
COc1cccc(/C=N/NC(=O)c2ccc(N(C)S(=O)(=O)c3ccccc3)cc2)c1OC	10.4%
Cc1cc([N+](=O)[O-])ccc1NC(=O)C(C)[n+]1ccccc1 (stereo not drawn)	15.1%

Of the compounds above, these contain a thiophene ring, fused or not:
SMILES	VDR inh
Cc1nc2sc(-c3ccccc3)cc2c(=O)[nH]1	4.1%
CCOc1ccccc1N(C)C(=O)c1sc2nc3n(c(=O)c2c1C)CCCC3	2.5%
O=C(CN1CCN(S(=O)(=O)c2ccc(Cl)s2)CC1)N1CCCCC1	17.8%
Cc1cc(C)cc(NC(=O)C(=O)NCC2CCCN2S(=O)(=O)c2cccs2)c1 (stereo not drawn)	-4.4%
CCN(CC)C(=O)c1sc2c(c1C)c(=O)n(-c1ccc(Cl)c(Cl)c1)c(=O)n2Cc1ccccc1C#N	-1.5%
CN(Cc1cccs1)C(=O)CCCc1c[nH]c2ccccc12	5.7%
Cc1nc2c(C)cccn2c1/C(O)=C1\C(=O)C(=O)N(CCN(C)C)C1c1cccs1 (stereo not drawn)	0.0%
CN1CCN(C(=O)Cn2c(-c3cccs3)cc3ccccc32)CC1	9.2%
CC(=Nc1ccccc1O)c1sc2ccccc2c1O	-14.4%
COc1cccc(CN(C)C(=O)CNC(=O)c2sc3ccccc3c2Cl)c1OC	?
CCC(C)NC(=O)CSc1nc2c(sc3ccccc32)c(=O)n1CCc1ccc(OC)c(OC)c1 (stereo not drawn)	1.3%
CC1CCc2c(sc3nc(SCC(=O)NCc4ccco4)nc(N)c23)C1 (stereo not drawn)	-1.7%
CCO[C@H]1OC(C(=O)NC2CC2)=C[C@@H](c2csc3ccccc23)[C@@H]1CCCO	-8.3%
Cc1nc(-c2ccc(S(=O)(=O)Oc3ccc(Cl)cc3Cl)s2)cs1	-22.5%
